Mtb growth: M. tuberculosis H37Rv growth inhibitors, H37Rv strain (AID 1626); hit rate 0.95% among 220,000; M. tuberculosis H37Rv growth inhibition; higher % means a stronger effect; inhibition, % at 10 µM; hits with a dose series show IC50 in µM;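 active means confirmed in a dose series; inconclusive means inhibition above 80% but not taken into the dose series; inactive means below 80% or under 30% at every dose of the series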;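 further: bacteria incubated seven days before Alamar blue readout; 0% = bacteria only wells and 100% = bacteria with antibiotic wells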
Arbovirus inh: antivirals against arbovirus infection, primary screen, cell-based, full library, 10K replicate subset; arbovirus infection cell-based antiviral screen; inhibition, % at 10 µM; hit rate 0.37% among 200,000; AID 1251, 2008;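 active means inhibition from about 30%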;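 further: bluetongue infection of BSR cells; cell survival read as ATP light after 72 h; 0% = infected wells without compound and 100% = uninfected wells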
Mtb bLac sens: beta-lactam sensitization of Mtb H37Rv, H37Rv. AID 434955, 2010. inhibition, % at 25 µM. hit rate 0.27% among 330,000. M. tuberculosis H37Rv growth with meropenem, percent inhibition; hits of this screen are not shown here;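 active means about 74% or more and at least 40 points above the plate without the antibiotic, then above 30% in a dose series; inconclusive means first-round hits that could not be retested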;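 further: growth measured after seven days incubation then overnight dye step; 0% = bacteria only wells and 100% = bacteria with antibiotic; twin plates without the antibiotic show which effects depend on it; some results filed as inactive read as strong as hits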
RecA intein inh: Mtb RecA intein splicing inhibitors, primary screen, biochemical, fluorescence, HTS | Protein RecA (Mycobacterium tuberculosis (strain ATCC 25618 / H37Rv)), P9WHJ3 | cell-free RecA intein splicing | inhibition, %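 (about 9 µM by stock and volumes)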 | hit rate 0.75% among 290,000; in the data active means inhibition above about 30%; inconclusive means no clear call, values can overlap the other calls;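 further: 0% = vehicle wells and 100% = reference inhibitor control wells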
Target sequence (P9WHJ3 whole entry, looked up): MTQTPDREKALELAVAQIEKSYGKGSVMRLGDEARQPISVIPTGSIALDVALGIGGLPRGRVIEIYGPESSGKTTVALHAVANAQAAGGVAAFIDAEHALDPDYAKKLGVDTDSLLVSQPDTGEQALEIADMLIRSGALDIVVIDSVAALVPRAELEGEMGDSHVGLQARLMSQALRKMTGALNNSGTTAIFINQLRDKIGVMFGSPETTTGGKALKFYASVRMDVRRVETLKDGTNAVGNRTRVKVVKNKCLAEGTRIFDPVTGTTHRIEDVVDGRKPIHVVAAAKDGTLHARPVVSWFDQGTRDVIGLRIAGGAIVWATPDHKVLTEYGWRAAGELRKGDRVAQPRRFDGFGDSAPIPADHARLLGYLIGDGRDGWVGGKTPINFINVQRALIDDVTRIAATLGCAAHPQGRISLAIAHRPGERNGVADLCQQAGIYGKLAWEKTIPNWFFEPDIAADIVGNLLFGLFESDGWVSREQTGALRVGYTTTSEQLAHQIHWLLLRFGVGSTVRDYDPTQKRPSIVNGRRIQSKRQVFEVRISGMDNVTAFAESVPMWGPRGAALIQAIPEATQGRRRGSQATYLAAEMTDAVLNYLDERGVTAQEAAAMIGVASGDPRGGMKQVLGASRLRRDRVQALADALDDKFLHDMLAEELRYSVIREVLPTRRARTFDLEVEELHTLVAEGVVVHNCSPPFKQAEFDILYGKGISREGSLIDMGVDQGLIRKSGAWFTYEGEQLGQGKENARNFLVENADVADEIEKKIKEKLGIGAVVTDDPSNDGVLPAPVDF
YopH inh: YopH tyrosine phosphatase inhibitors, primary screen, biochemical, fluorescence Ex485/Em525. YopH tyrosine phosphatase [Yersinia enterocolitica]. inhibition, %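 (about 10 µM by stock and volumes)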. hit rate 0.16% among 140,000. AID 898, 2007;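 active means inhibition of 50% or more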;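 further: controls were vehicle for no effect and minimum signal wells for full effect; inactives centre near -20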
Arbovirus inh repeat: recorded beside Arbovirus inh, whose call it bears; inhibition, %; measured here: 10K subset replicate screen; many hits read low in the repeat;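 first of two repeat runs on a subset; 0% = infected and 100% = uninfected wells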
The depositor's hits bear a star; u = inconclusive; x = no result given. These rows are one share of the data. The share of hits here may be higher or lower than overall.

SMILES	Mtb growth	Arbovirus inh	Mtb bLac sens	RecA intein inh	YopH inh	others
COc1ccc2[nH]c(O)c(N=NC(=N)N)c2c1	-1%	4	7	-0.9	-11
COC(=O)CCC(=O)OC1(C)C(=O)C=C2C=C(C3CC3)N(CC(C)C)C=C2C1=O (configuration not stated)	-19%	x	x	27	x
O=C(Nc1c(C(=O)N2CCOCC2)cnn1-c1ccccc1)c1ccccc1F	x	x	5	5.0	x
Cc1onc(-c2ccccc2Cl)c1C(=O)N(Cc1ccc(N(C)C)cc1)C(C)C	x	x	-9	2.1	x
O=C(Cn1c(=S)[nH]c2ccccc2c1=O)NCCc1ccccc1	-2%	4	4	-5.8	x
COc1ccc(N2Cc3ccc(C(=O)N/N=C\c4ccc(O)cc4O)cc3C2)cc1	x	x	2	6.6	x
CCOc1ccc(-c2c(C(=O)N/N=C/c3cccnc3)nnn2-c2nonc2N)cc1	x	x	2	-2.8	x
COc1ccc(OC)c(NC(=O)CCNS(=O)(=O)c2cccc3nonc23)c1	x	x	-1	5.1	x
CCc1nnc(N2C(=O)c3cccc4cccc(c34)C2=O)s1	-4%	3	-2	-25	-11
CC1CCN(Cc2cnc(Cl)s2)CC1	-5%	10	13	8.5	-41
C/C(=N\NC(=O)c1ccccc1O)c1c(O)n(Cc2ccccc2)c(=O)[nH]c1=O	-10%	x	-4	6.0	x
CCOCCOC(=O)c1[nH]c2c(c1C)C(=O)CC(c1cc(OC)c(OC)c(OC)c1)C2 (configuration not stated)	x	x	0	1.4	x
O=c1ncc(F)c[nH]1	-1%	x	-7	1.7	x
COc1cccc(/C=C/C(=O)OCC(=O)NCc2ccco2)c1	-3%	1	13	-0.1	-17
Cc1ccc(NC(=O)CN2CCN(CCN=CC3=C(O)CC(c4ccccc4)CC3=O)CC2)cc1 (configuration not stated)	2%	-6	-4	-1.5	-15
CCCNC(=O)N1CCN(S(=O)(=O)c2ccc(C)cc2)CC1	0%	3	10	-4.3	-27
CCn1c(SCC(=O)NC2CCCCC2)nc2c(c1=O)SCC2	x	x	-2	0.9	x
Cc1ccc(S(=O)(=O)N(CC(=O)Nc2ccc(C)cc2C)C(=O)N2CCN(C)CC2)cc1	x	x	-2	-0.1	x
CNc1nnc(C(F)(F)F)s1	-3%	x	-5	0.2	x
Nc1nc(CSc2ncn[nH]2)nc(Nc2ccc(F)cc2)n1	3%	9	-2	0.3	x
CCCOc1ccc2oc(=O)c3c(c2c1)CCCN3C(=O)CN1CCc2ccccc2C1	14%	-3	73	3.3	-23
Cc1nc2cc(C(=O)NCc3ccc4c(c3)OCO4)ccc2n1-c1ccc(Br)cc1	75%	-25	82	0.3	-21
CCOc1ccc(N=Nc2c(C)[nH]n(-c3ccccc3)c2=O)cc1	x	x	8	-2.0	x
O=C(NCCc1ccccc1)c1noc2c1CCCCC2	x	-2	-7	-0.4	10
Cc1ccc(SCCC(=O)N/N=C/c2ccncc2)cc1	u	24	98	-0.3	x
Next records.
SMILES	Mtb growth	Arbovirus inh	Mtb bLac sens	RecA intein inh	YopH inh	others
O=C(Cc1ccccc1)NCC(=O)OCc1ccccc1F	x	x	-1	-1.9	x
COc1ccc(Nc2ncnc3ccccc23)c(OC)c1	x	3	-7	-1.0	-5
O=C1OCC(c2ccccc2)=C1c1ccccc1[N+](=O)[O-]	1%	-6	7	-1.3	x
O=c1[nH]c2ccccc2c(=O)n1Cc1ccccc1	9%	5	9	1.9	-3
Cc1nccn1CC(O)Cn1c2ccccc2c2ccccc21 (configuration not stated)	2%	-11	-10	x	3
Cc1cc(C)nc(NC(=O)c2cccc(Cl)c2)n1	-4%	-3	5	3.1	39
COc1ccc(S(=O)(=O)N2CCCCC2)cc1NC(=O)COc1ccccc1	x	x	2	3.0	x
Nc1cccc(-n2nnnc2CN2CCOCC2)c1	-1%	-5	-2	-4.8	-42
NC(=O)C1CCN(c2ncnc3c(-c4ccccc4)nsc23)CC1	-8%	7	2	-1.0	-20
NNC(=O)COc1ccc(-c2n[nH]c(C(F)(F)F)c2-c2ccc(Br)cc2)c(O)c1	2%	3	8	14	-13
CN(C)S(=O)(=O)c1ccc(N2CCCC2)c(C(=O)Nc2ccc(C(N)=O)cc2)c1	x	x	-8	-0.9	x
COc1ccc(N(Cc2cc3cc(OC)ccc3[nH]c2=O)S(=O)(=O)c2ccc(NC(C)=O)cc2)cc1	x	x	21	0.7	x
CCOC(=O)N/N=C/c1cn(CCCOc2ccccc2)c2ccccc12	9%	6	8	-2.4	-19
Cc1ccc(CNC(=O)c2ccccc2N(C)S(C)(=O)=O)cc1	-4%	0	-3	1.6	x
Cc1cccc(-n2c(SCC(=O)N3CC(=O)Nc4ccccc43)nc3ccccc3c2=O)c1C	12%	4	48	9.3	3
O=C(CSCc1c(F)cccc1Cl)NCc1ccncc1	1%	12	1	-1.5	x
CCC(C)c1ccc(NC(=S)Nc2ccc(OC)c(OC)c2)cc1 (configuration not stated)	4%	-3	-3	-1.2	-33
COc1cccc(C(=O)Nc2nnc(-c3ccc(OC)cc3OC)s2)c1	x	x	2	-1.1	x
COc1ccc(C2c3ccc(O)cc3Oc3ncn(Cc4ccco4)c(=N)c32)cc1OC (configuration not stated)	-3%	x	-1	3.7	x
COc1ccccc1C(C)NCC(=O)NCC(=O)Nc1ccc(F)c(F)c1F (configuration not stated)	1%	10	0	1.0	x
CN1CCN(c2ccccc2NC(=O)Cc2ccc(Cl)cc2)CC1	8%	6	-7	-0.9	5
CCOC(=O)c1cccc(NC(=O)Nc2ccc3c(c2)C(=O)OC3)c1	-2%	x	-3	-4.9	x
C=CCN(C(=O)Nc1ccc2c(c1)nc(C)n2C)c1ccccc1	-5%	x	9	2.2	x
Cc1ccc2nc(NCCNC(=O)c3ccccc3)c(C#N)cc2c1	x	x	-5	-28	x
Cc1ccc(OCC(=O)OC(C)CN(C)Cc2ccccc2)cc1 (configuration not stated)	0%	1	2	0.9	-31
Later entries.
SMILES	Mtb growth	Arbovirus inh	Mtb bLac sens	RecA intein inh	YopH inh	others
COc1ccc(OC)c(S(=O)(=O)Nc2ccc(CC(=O)O)cc2)c1	-8%	9	10	-2.7	-49
O=C(O)c1sccc1S(=O)(=O)c1ccccc1	0%	1	11	-2.1	-34
COc1cccc(C(=O)O/N=C/c2ccc(Sc3ccc(C)cc3)nc2)c1	37%	-21	25	5.3	-23
Cc1ccc(SCC(=O)N2CCCC2)cc1	-2%	-6	-5	1.6	-30
CN(CCCN1CCOCC1)Cc1cn(C)nc1-c1ccccc1F	4%	1	6	-1.4	x
CCOC(=O)C1=C(C)NC(C)=C(C(=O)OCC)C1c1nc2ccccc2[nH]1	3%	1	3	0.9	-23	Arbovirus inh repeat=-4
CCN(CC(N)=O)S(=O)(=O)c1ccc(F)cc1	3%	5	0	-5.6	x
COc1cc(OC)c(OC)cc1/C=C/c1cc(C(F)(F)F)[nH]c(=O)n1	-3%	-4	2	0.7	x
N#CCCNS(=O)(=O)c1ccc(C(=O)OCC2CCCCC2)cc1	x	x	-5	-3.3	x
O=C(CSc1nnc(CNC(=O)c2ccccc2)o1)c1ccc(Cl)cc1	x	x	-5	2.1	x
CC1CN=C(N(C(=O)Nc2ccccc2)C(C)c2ccccc2)S1 (configuration not stated)	-4%	x	-6	4.0	x
CC(=O)N1c2ccc(S(=O)(=O)N(C)c3cc(C)ccc3C)cc2CC1C (configuration not stated)	x	x	-4	2.3	x
C[C@H](NC(=O)c1nc[nH]c1C(=O)N1CCc2ccccc2C1)C(=O)OCc1ccccc1	1%	x	43	4.9	x
CCOC(=O)N1CCN(C(=O)c2ccc(NC(=O)c3ccc(C)cc3)cc2)CC1	3%	24	-1	1.6	-18
CCOC(=O)c1nn(-c2ccccc2)c(=O)cc1OCC(=O)Nc1cccc(OC)c1	x	x	-13	-2.9	x
Cc1ccc(S(=O)(=O)N2CCCCC2CCNC(=O)C(=O)NCc2ccco2)cc1 (configuration not stated)	x	x	-4	0.5	x
O=C(c1ccco1)N1CCN(S(=O)(=O)c2cc(Cl)ccc2Cl)CC1	x	x	-6	-0.4	x
CNC(=S)NN(c1ccccc1)c1ccccc1	3%	5	x	-0.1	-11
CC(NC(=O)Nc1ccc([N+](=O)[O-])cc1)C(c1cccs1)N1CCCC1 (configuration not stated)	-8%	-1	-3	0.4	-10
COC(=O)c1cc(S(=O)(=O)N2CCC(C)CC2)cn1C	x	x	3	-2.2	x
Cc1cc(C)c2c(=O)cc(C(F)F)oc2c1	-2%	8	12	0.4	-12
O=C(Cc1cccs1)Nc1nc(-c2ccccc2)cs1	6%	10	0	3.2	-35
O=C(Nc1ccccc1F)c1ccc2nc(N3C(=O)CCC3=O)sc2c1	-3%	1	-16	-2.5	-27
CCOC(=O)NN=C1c2ccccc2-c2ccccc21	x	x	-2	-1.2	x
CCN(CC)CCCNC(=O)c1cc2c(=O)[nH]c3ccc(C)cc3c2s1	x	x	-1	-1.3	x
Further records:
SMILES	Mtb growth	Arbovirus inh	Mtb bLac sens	RecA intein inh	YopH inh	others
CCc1ccc(NC(=O)COC(=O)/C=C/c2c(C)nn(C3CCS(=O)(=O)C3)c2Cl)cc1 (configuration not stated)	-1%	3	-2	1.8	x
CC(SC(=S)N1CCOCC1)C(=O)O (configuration not stated)	-6%	9	-6	3.0	-19
O=C(NC1CC1)C1CC(=O)N(c2ccc(F)cc2)C1 (configuration not stated)	x	x	-8	0.4	x
COC(=O)C(C(=O)OC)c1ccc(N)cc1	79%	3	21	2.8	x
Cc1[nH]c(C)c(S(=O)(=O)N(C)Cc2ccccc2)c1C(=O)N1CCCC1	x	x	-2	-2.7	x
O=[N+]([O-])c1c(Nc2ccc(O)cc2)cc(N2CCOCC2)c2nonc12	4%	-7	4	x	-23
COC(=O)c1ccc(-n2c(CCC(=O)O)ccc2-c2ccc(C)cc2)cc1	x	x	15	-0.9	x
Cc1ccc(C(C(=O)NCc2ccco2)N(CC2CCCO2)C(=O)Cn2nnc3ccccc32)cc1 (configuration not stated)	1%	3	-8	-2.8	-13
c1ccc(-n2ncc3c2ncn2cnnc32)cc1	2%	7	-13	-1.0	-30
Cc1ccc(NC(=O)N2CCc3ccccc3C2)cc1C	x	x	2	2.3	x
O=C(O)CCC(=O)N1c2ccccc2NC2=C(C(=O)CC(c3ccc(F)cc3)C2)C1c1ccc([N+](=O)[O-])o1 (configuration not stated)	x	0	-6	-5.8	x
Cc1ccc(O)c(C(CC(=O)N2CCCC2)c2ccccc2)c1 (configuration not stated)	2%	3	-2	2.9	-32
CCC/C(O)=C1\C(=O)CC(C)(C)CC1=Nc1ccccc1OC	9%	5	2	1.5	x	Arbovirus inh repeat=0
CN1C(=O)C2(NCCc3c2[nH]c2ccccc32)c2ccccc21 (configuration not stated)	-6%	-2	4	-2.3	14
O=C(c1cccc(Cl)c1)N1CCN(C(=O)c2ccccc2F)CC1	-2%	-2	-7	2.6	11
O=C(NCc1ccc(Cl)cc1)C1CCN(c2cnccn2)CC1	-4%	0	-5	2.5	x
COc1cc(NC(=O)Cc2ccc(Cl)cc2)ccc1NC(=O)c1ccco1	5%	1	42	-1.6	-57
CC1CCCCC1NC(=O)COC(=O)Cc1ccc(Br)cc1 (configuration not stated)	-8%	10	6	3.0	x
CCc1nnc(NC(=O)Cn2nc(-c3ccccc3OC)ccc2=O)s1	-8%	1	-5	-0.4	-45
Fc1cccc(Nc2nc(Cl)nc(Cl)n2)c1	0%	-1	-15	-2.1	x
Cc1cc([N+](=O)[O-])nn1CC(=O)Nc1ccccn1	-3%	5	8	-0.3	x
CN(C)CCNC(=O)C(=O)NCC1OCCN1S(=O)(=O)c1cc(F)ccc1F (configuration not stated)	x	x	0	-1.8	x

Screening data (PubChem)
